EPAC2 antag – human EPAC2 antagonism, validation. EPAC2 Rap1B BODIPY-GDP exchange, fluorescence. Potency, µM (highest dose often 112 µM), for the others: at the highest dose activity, negative = inhibition, most hits filed as inhibitors. 16,000 compounds, 1.7% hits. AID 1645886; active means well fitted inhibition curve with a large enough effect; inconclusive means small, poorly fitted or top-dose-only effect; inactive means no such curve, though single readings can be large or run the other way;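 further: 100% = activation by cAMP agonist control; nearly all actives have a fitted effect of over 40% in size; the record reuses the description of the EPAC1 agonist screen; inactives centre near -10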
Target sequence (Q8WZA2 whole entry, looked up): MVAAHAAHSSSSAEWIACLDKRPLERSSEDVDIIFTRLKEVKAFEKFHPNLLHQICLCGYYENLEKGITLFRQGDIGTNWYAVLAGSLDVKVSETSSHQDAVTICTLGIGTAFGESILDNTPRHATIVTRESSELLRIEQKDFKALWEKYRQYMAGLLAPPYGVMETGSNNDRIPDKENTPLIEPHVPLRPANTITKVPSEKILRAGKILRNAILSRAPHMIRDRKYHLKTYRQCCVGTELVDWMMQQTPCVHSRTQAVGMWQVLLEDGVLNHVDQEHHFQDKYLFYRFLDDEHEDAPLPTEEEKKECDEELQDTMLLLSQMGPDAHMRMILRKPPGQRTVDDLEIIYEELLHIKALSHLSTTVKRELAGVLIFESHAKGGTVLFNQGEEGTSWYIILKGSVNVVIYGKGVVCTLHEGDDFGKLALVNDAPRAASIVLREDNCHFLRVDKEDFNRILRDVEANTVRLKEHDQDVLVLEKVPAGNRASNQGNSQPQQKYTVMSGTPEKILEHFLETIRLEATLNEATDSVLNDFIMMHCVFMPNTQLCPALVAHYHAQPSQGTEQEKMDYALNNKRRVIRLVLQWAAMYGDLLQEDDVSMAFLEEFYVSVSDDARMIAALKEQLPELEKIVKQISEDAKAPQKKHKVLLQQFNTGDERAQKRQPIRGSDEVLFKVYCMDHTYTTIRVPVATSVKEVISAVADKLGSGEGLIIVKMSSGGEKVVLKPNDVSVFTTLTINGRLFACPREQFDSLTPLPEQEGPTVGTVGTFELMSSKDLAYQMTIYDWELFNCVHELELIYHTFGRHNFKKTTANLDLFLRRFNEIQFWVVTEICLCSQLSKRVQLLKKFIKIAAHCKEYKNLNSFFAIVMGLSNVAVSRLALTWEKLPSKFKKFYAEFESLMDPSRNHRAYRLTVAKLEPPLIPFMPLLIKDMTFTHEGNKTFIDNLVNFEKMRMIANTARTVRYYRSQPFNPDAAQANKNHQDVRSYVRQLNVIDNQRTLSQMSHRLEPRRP
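Fluorescent exchange read-out: 100 nM EPAC2 with 250 nM RAP1B–BODIPY-GDP and 50 uM GDP; BODIPY-GDP release lowers fluorescence. Read at 480/540 nm every 5 min for 30 min at room temperature; normalized to 6.5 mM cAMP.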
The depositor's hits bear a star; ? = inconclusive; & = joins results of further samples; ! = not active in a repeat; [ ] = remark or other dose. Potency means the concentration at half of the fitted maximal effect.

Molecule	EPAC2 antag
CC[N+]1(CC(=O)c2ccc(I)cc2)CCCCC1	?
COc1ccc2c(c1)OCC(Cc1ccc(OC)c(OC)c1)C2=O (centres undefined)	45µM*
COc1ccc2[nH]c(CCc3nc4c(OC)c(OC)ccc4[nH]3)nc2c1OC	-2%
C[C@H]1NCc2cc(-c3ccc4c(=O)c(C(=O)O)cn(C5CC5)c4c3OC(F)F)ccc21	18%
O=S(=O)(c1ccccc1)N1CCC2(CCCN(Cc3cc(C(F)(F)F)cc(C(F)(F)F)c3)C2)CC1	-27%
O=C(O)COc1ccc(OCCNC[C@@H](O)COc2ccccc2)cc1	-21%
c1cncc(-c2nc(N3CCNCC3)c3ccccc3n2)c1	-21%
NCCn1c(=O)c(CCc2ccccc2)nc2cncnc21	-16%
CC(=O)N[C@@H](C=O)[C@H](O)[C@H](O)[C@@H](O)CO	2%&-8%
Cc1ccc2cc(CNC(C)c3cccc4ccccc34)c(N3CCC(O)CC3)nc2c1 (centres undefined)	-13%
COc1cccc(Nc2ncc3nc(-c4ccc(Cl)cc4)c(=O)n(C[C@H]4CCCO4)c3n2)c1	10%
Clc1ccccc1-c1nccc(NCc2ccccc2)n1	?
COc1cccc2oc(-c3ccc(O)cc3)cc(=O)c12	-2%
N[C@]1(C(=O)O)CCc2cc(P(=O)(O)O)ccc21	-14%
COc1ccc(Oc2ncc3nc(C)c(=O)n(C[C@H]4CCCO4)c3n2)cc1	5%
COc1cc(/C=C/C(=O)O[C@H]2CC[C@]34C[C@]35CC[C@]3(C)[C@@H]([C@H](C)CCC=C(C)C)CC[C@@]3(C)[C@@H]5CC[C@H]4C2(C)C)ccc1O	35%&-10%[activator]
NC(=O)c1ccc[n+]([C@@H]2OC(COP(=O)([O-])OP(=O)(O)OCC3OC(n4cnc5c(N)ncnc54)C(O)C3O)C(O)C2O)c1 (some centres undefined)	-14%
c1ccc(N2CCN(CCCOc3ccc4c(c3)OCO4)CC2)cc1	-13%&-27%
O=C(O)COc1nn(Cc2ccccc2)c2ccccc12	17%
CC1(C)OC2CC3C4CC(F)C5=CC(=O)C=CC5(C)C4C(O)CC3(C)[C@]2(C(=O)CO)O1 (some centres undefined)	-19%
COc1cc(=O)n2c(c1C(=O)N(C)Cc1ccsc1)CCN(Cc1c(C)nn(C)c1Cl)CC2	7%
CN(C)CCC=C1c2ccccc2COc2ccccc21	5%
COc1cccc(C(=O)NCC2Cc3cccc(-c4ncccn4)c3O2)c1OC (centres undefined)	8%
N=c1ccn2c(n1)OC1C(O)C(CO)OC12 (centres undefined)	1%&-9%
c1ccc2c(NCCN3CCOCC3)nc(-c3ccoc3)nc2c1	-18%
CN1CCC(=O)N([C@H](CN=[N+]=[N-])Cc2ccccc2)CC1	-17%
COc1ccc(C(=O)N2CCC3(CCCN(CC(C)C)C3)CC2)cc1	-20%
CC1=C(C)C(=O)C(C(CCCCCC(=O)O)c2ccccc2)=C(C)C1=O (centres undefined)	-3%
CC(=O)OCC1OC(n2cnc3c(Cl)nc(Cl)nc32)C(OC(C)=O)C1OC(C)=O (centres undefined)	-2%
O=C(C[N+]1(c2ccccc2)CCOCC1)c1ccccc1	-24%
COc1ccc(C2CC(=O)c3ccc(OC)cc3O2)cc1 (centres undefined)	-4%
Oc1cccc(-c2c3nc(c(-c4cccc(O)c4)c4ccc([nH]4)c(-c4cccc(O)c4)c4nc(c(-c5cccc(O)c5)c5ccc2[nH]5)CC4)C=C3)c1	-11%&-3%
Nc1nc(=S)c2[nH]cnc2[nH]1	?
O=S(=O)(c1ccccc1)N1CCC2(CCN(c3cccc(-c4ccccc4)c3)CC2)CC1	4%
CC(C)Cc1nc2cc(NS(=O)(=O)N(C)C)cc(C(=O)N3CCSCC3)c2n1C	-6%
CC[C@H]1OC(=O)C[C@@H](O)[C@H](C)[C@@H](O[C@@H]2O[C@H](C)[C@@H](O[C@H]3C[C@@](C)(O)[C@@H](O)[C@H](C)O3)[C@H](N(C)C)[C@H]2O)[C@@H](CC=O)C[C@@H](C)C(=O)/C=C/C(C)=C/[C@@H]1CO[C@@H]1O[C@H](C)[C@@H](O)[C@@H](OC)[C@H]1OC	18%&-7%
Nc1ncnc2c1[nH]c(=O)n2C1CC(O)C(CO)O1 (centres undefined)	-6%
COCc1ccc(C(=O)N2CCOc3ccc(CN4CCN(c5ccc(F)cc5)CC4)cc3C2)o1	-8%
O=C(O)c1ccccc1-c1oc2cc(O)ccc2c(=O)c1Oc1ccccc1	-13%
CC(=O)c1ccc(F)c(-c2cc(C)cc3c2OC(CNC(=O)c2ccnn2C)C3)c1 (centres undefined)	?
O=C(Cn1cncn1)NCC1Cc2cc(-c3ccsc3)cc(Cl)c2O1 (centres undefined)	-9%
O=C1CC[C@@H](O)CCN1CC[C@H](Sc1ccccc1)c1ccccc1	-23%
COCC(=O)N1CCC[C@@]2(CCN(c3ncccn3)C2)C1	-16%
CCNC(=O)N1CCN(CCCC(c2ccc(F)cc2)c2ccc(F)cc2)CC1	?
Cc1ccc(C(=O)N(Cc2cc3cccc(C)c3nc2N2CCC(O)CC2)C2CC2)cc1	-16%
CC(=O)OCC1=C(C(=O)O)N2C(=O)C(NC(=O)Cc3cccs3)C2SC1 (centres undefined)	23%
COc1ccccc1CCn1c(=O)cnc2cncnc21	2%
O=C(c1ccncc1)N1CCC2(CCN(Cc3nccs3)CC2)CC1	-25%
Cc1cc(C(=O)Nc2ccccc2-c2nc(CNC(=O)C3(C)CCCCC3)c(C)o2)c(C)o1	4%
CCOc1ccc2ccccc2c1C(=O)N[C@@H]1C(=O)N2[C@@H]1SC(C)(C)[C@@H]2C(=O)O	-7%[56.6 µM]
COCC(=O)N1CCC2(CC1)CCN(c1ccccc1)CC2	-7%
Nc1nc(OCc2ccccc2)c2[nH]cnc2n1	-8%
CN1CCN(c2nc(-c3ccoc3)nc3ccccc23)CC1	-16%
O=C(O)Cc1csc(-c2ccc(Cl)cc2)n1	4%
CC(C)(C)CC(C)(C)N=C1Nc2ccc(Cl)cc2N[C@]12C[C@H]1CCCC(=O)N3CC[C@@H](C2)[C@@H]13	?
COc1ccc(S[C@@H]2C[C@@H](C(=O)Nc3ccc4nccnc4c3)N(C3Cc4ccccc4C3)C2)cc1	-22%
CCc1cc[n+](CC(=O)c2ccc(F)cc2)cc1C(=O)O	-25%
COc1ccc(-n2c(=O)c(CCc3ccccc3)nc3cnc(N4CCN(C)CC4)nc32)cc1	0%
O=S(=O)(c1ccccc1)N1CCC2(CC1)CN(c1ccncc1)C2	2%
CC(=O)N(CC(O)CO)c1c(I)c(C(=O)NCCO)c(I)c(C(=O)NCC(O)CO)c1I (centres undefined)	7%

Some of the entries above, reformatted.
CCNC(=O)N1CCN(CCCC(c2ccc(F)cc2)c2ccc(F)cc2)CC1
  EPAC2 antag: ?
Cc1ccc(C(=O)N(Cc2cc3cccc(C)c3nc2N2CCC(O)CC2)C2CC2)cc1
  EPAC2 antag: -16%
CC(=O)OCC1=C(C(=O)O)N2C(=O)C(NC(=O)Cc3cccs3)C2SC1 (centres undefined)
  EPAC2 antag: 23%

An excerpt from above in order of SMILES length, rising:
Molecule	EPAC2 antag
Nc1nc(=S)c2[nH]cnc2[nH]1	?
COc1ccccc1CCn1c(=O)cnc2cncnc21	2%
O=C(c1ccncc1)N1CCC2(CCN(Cc3nccs3)CC2)CC1	-25%
O=C(O)c1ccccc1-c1oc2cc(O)ccc2c(=O)c1Oc1ccccc1	-13%
CCNC(=O)N1CCN(CCCC(c2ccc(F)cc2)c2ccc(F)cc2)CC1	?
CC(=O)c1ccc(F)c(-c2cc(C)cc3c2OC(CNC(=O)c2ccnn2C)C3)c1 (centres undefined)	?
O=S(=O)(c1ccccc1)N1CCC2(CCN(c3cccc(-c4ccccc4)c3)CC2)CC1	4%

Back to the main list with the two entries that preceded the break.
smiles	EPAC2 antag
O=S(=O)(c1ccccc1)N1CCC2(CC1)CN(c1ccncc1)C2	2%
CC(=O)N(CC(O)CO)c1c(I)c(C(=O)NCCO)c(I)c(C(=O)NCC(O)CO)c1I (centres undefined)	7%
O=C(c1cc(C(F)(F)F)cc(C(F)(F)F)c1)N1CCC2(CCN(Cc3ccccc3)CC2)CC1	-14%
CC(=O)Nc1ccccc1C(=O)C(=O)O	-5%
CC(=O)N1CCC2(CCCN(c3ccccn3)C2)CC1	-26%
COc1ncc2nc(-c3cc(F)cc(F)c3)c(=O)n(Cc3cccs3)c2n1	-13%
CC(=O)N1CCN(c2ccc(OCC3CO[C@@](Cn4ccnc4)(c4ccc(Cl)cc4Cl)O3)cc2)CC1 (some centres undefined)	35µM*
COc1ccccc1CN1CC[C@@]2(CCCN(C(=O)c3ccncc3)C2)C1	-25%
COc1ccc(CCN(C)CCCC(C#N)(c2cc(OC)c(OC)c(OC)c2)C(C)C)cc1OC (centres undefined)	?
COC(=O)[C@@H]1CCCN1Cc1ccc2c(c1)CN(Cc1coc3ccc(C)cc3c1=O)CCO2	-4%
COc1ccc(CN2[C@@H](CC(=O)O)c3ccc(/C=C/C(=O)O)cc3S2(=O)=O)cc1	5%
CCC1OC(=O)C(C)[C@@H](O[C@H]2C[C@@](C)(OC)C(O)C(C)O2)C(C)[C@@H](O[C@@H]2OC(C)CC(N(C)C)C2O)[C@](C)(O)CC(C)/C(=N\OCOCCOC)[C@H](C)C(O)[C@]1(C)O (some centres undefined)	-15%
COc1ncc2nc(-c3cc(F)cc(F)c3)c(=O)n(CCC#N)c2n1	-31%
Cc1noc(C)c1-c1cncnc1NC1CC1	-3%
Cc1c(NC(C)C)c(=O)n(-c2ccccc2)n1C	36%[activator]
CCCS(=O)(=O)NCc1c(C)ncc2c1CCN(C(=O)/C=C/c1cccc(Cl)c1)C2	-11%
CC(C)NC[C@H](O)c1ccc(NS(C)(=O)=O)cc1	-25%
COc1cccc(CN(C)C(=O)c2cnn(-c3nccc(-c4ccc5c(c4)OCO5)n3)c2C)c1	-4%
COc1ccc(-c2cc3ccccc3c(=O)o2)cc1	-4%
CC(=O)OCC(=O)[C@@]1(O)[C@H](C)C[C@H]2[C@@H]3C[C@H](F)C4=CC(=O)C=C[C@]4(C)[C@H]3[C@@H](O)C[C@@]21C	6%
COc1ccc(C(=O)N2CCC3(CCCN(C(=O)NC(C)C)C3)CC2)cc1	-12%
O=C(O)CCc1cc(I)c(O)c(I)c1	-9%
COc1ccc(Oc2ncc3nc(-c4cc(F)cc(F)c4)c(=O)n(C4CC4)c3n2)cc1	-6%
COc1ccc(C(Cl)=C(c2ccc(OC)cc2)c2ccc(OC)cc2)cc1	3.2µM*!
CCC1(C2CCN(C(=O)c3ccc(C)cc3C)CC2)NC(=O)N(CCc2scnc2C)C1=O (centres undefined)	15%
OC(C1=C/C(=C\c2ccncc2)c2ccccc21)c1ccncc1 (centres undefined)	?
OC[C@@H](O)[C@@H](O[C@@H]1O[C@H](CO)[C@H](O)[C@H](O)[C@H]1O)[C@H](O)[C@@H](O)CO	2%
C=C[C@@H]1c2cc(C)ccc2N(S(=O)(=O)c2ccc(C)cc2)[C@H](c2ccc(C(C)(F)F)cc2)C1(C#N)C#N	8%
CCC(=O)O[C@@H]1CC(=O)O[C@H](C)C/C=C/C=C/[C@H](O)[C@H](C)C[C@H](CC=O)[C@H](O[C@@H]2O[C@H](C)[C@@H](O[C@H]3C[C@@](C)(O)[C@@H](OC(=O)CC)[C@H](C)O3)[C@H](N(C)C)[C@H]2O)[C@H]1OC	-11%[56.6 µM]
CN1[C@H](CC(=O)c2ccccc2)CCC[C@H]1C[C@@H](O)c1ccccc1	-9%

This is a subset; count on the stated rates, not on these rows.
